Compound activity (PubChem BioAssay)
Vaccinia inh: blocks a specific stage of Vaccinia orthopoxvirus infection; activity change (mCherry), % (test concentration not listed); Vaccinia-infected cells, mCherry/Venus stage reporter fluorescence; stronger effect = lower value; some inactives read as strong as hits; 89,000 compounds, 0.01% hits;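 active means mCherry past -33% and 40 or more points under the early reporter, replicates agreeing; inconclusive means past -33% without that gap or agreement; tested in A549 cells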;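 further: scaled between vehicle wells and reference inhibitor wells; 23 nL library stock went into each well; one replicate is shown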
Vaccinia inh Venus: also measured in Vaccinia inh; calls as there; activity change (Venus), %; measured here: Venus reporter, other viral stage;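 negative = less Venus signal; first of two replicates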
* = called active by the depositor; ? = inconclusive; / = no result given. These rows are one share of the data; count on the stated rates, not on these rows.

SMILES	Vaccinia inh	Vaccinia inh Venus
CCCN(C)C[C@@H]1Oc2ncc(-c3ccc(F)cc3)cc2C(=O)N([C@H](C)CO)C[C@@H]1C	-21.3	-20.5
CCCNC(=O)N(C)C[C@@H]1Oc2cc(C#CCN(C)C)ccc2S(=O)(=O)N([C@@H](C)CO)C[C@@H]1C	2.8	-4.8
Cc1ccc(S(=O)(=O)Nc2ccc3c(c2)C(=O)N([C@H](C)CO)C[C@@H](C)[C@@H](CN(C)S(=O)(=O)c2cn(C)cn2)O3)cc1	2.7	9.7
C[C@H](CO)N1C[C@H](C)[C@H](CN(C)C(=O)Nc2ccc3c(c2)OCO3)Oc2ccc(NC(=O)NC3CCCCC3)cc2CC1=O	7.5	6.0
C[C@H](O)C#Cc1cnc2c(c1)C(=O)N([C@H](C)CO)C[C@@H](C)[C@H](CN(C)C(=O)CC1CC1)O2	7.6	7.7
C[C@H](NC(=O)C[C@H]1C[C@H]2c3cc(NC(=O)C4CCOCC4)ccc3O[C@H]2[C@@H](CO)O1)c1ccccc1	1.3	3.2
COCC(=O)N(C)C[C@@H]1Oc2cc(C#CCC(C)C)ccc2S(=O)(=O)N([C@H](C)CO)C[C@H]1C	17.7	9.8
COc1ccc(C#Cc2ccc3c(c2)[C@H]2[C@H](CCN2Cc2nccs2)[C@@H](CO)N3)cc1	4.9	-4.2
C[C@H](CO)N1C[C@H](C)[C@@H](CN(C)C(=O)Cc2ccccn2)Oc2ncc(-c3cccc(C(=O)N(C)C)c3)cc2C1=O	15.6	19.5
COc1ccc(S(=O)(=O)Nc2ccc3c(c2)C(=O)N([C@@H](C)CO)C[C@@H](C)[C@@H](CN(C)C(=O)Nc2ccc(C(F)(F)F)cc2)OCCCC[C@H](C)O3)cc1	7.7	3.2
COc1ccc(C#Cc2ccc3c(c2)O[C@@H](CN(C)C(=O)NC2CCCCC2)[C@H](C)CN([C@@H](C)CO)S3(=O)=O)cc1	?	/
Cc1noc(C)c1NC(=O)Nc1ccc2c(c1)C(=O)N([C@H](C)CO)C[C@H](C)[C@H](CN(C)C(=O)Nc1ccc(C(F)(F)F)cc1)OCCCC[C@H](C)O2	-0.1	-5.5
C[C@H](O)C#Cc1cnc2c(c1)C(=O)N([C@@H](C)CO)C[C@H](C)[C@@H](CN(C)C(=O)CN(C)C)O2	16.1	7.5
C[C@@H]1CCCCO[C@@H](CN(C)C)[C@@H](C)CN([C@H](C)CO)C(=O)c2cc(NC(=O)Nc3cccc4ccccc34)ccc2O1	9.4	8.5
C[C@@H]1CN([C@@H](C)CO)C(=O)Cc2cc(NS(=O)(=O)c3cn(C)cn3)ccc2O[C@@H]1CN(C)S(=O)(=O)c1cn(C)cn1	6.1	6.1
CCCC#Cc1cnc2c(c1)C(=O)N([C@H](C)CO)C[C@H](C)[C@@H](CN(C)C(=O)c1cnccn1)O2	9.9	6.0
C[C@H]1CCCCO[C@@H](CN(C)C(=O)Nc2ccc(C(F)(F)F)cc2)[C@@H](C)CN([C@@H](C)CO)C(=O)c2cc(NS(=O)(=O)c3cn(C)cn3)ccc2O1	-21.2	-17.4
COc1ccc(S(=O)(=O)N(C)C[C@H]2Oc3ccc(NC(=O)Nc4c(C)noc4C)cc3C(=O)N([C@@H](C)CO)C[C@H]2C)cc1	16.0	13.2
COC(=O)[C@]1(CCS(=O)(=O)c2ccccc2)N=C(c2ccc(OCCCO)cc2)O[C@@H]1c1ccccc1	?	/
CO[C@@H]1CN(C)C(=O)c2ccc(NC(=O)c3cnccn3)cc2OC[C@@H](C)N(C(=O)c2cnccn2)C[C@H]1C	11.5	4.2
COc1ccc2c3c([nH]c2c1)[C@@H](CO)N(S(C)(=O)=O)CC31CCN(C(=O)c2ccccc2)CC1	7.7	-2.6
Cc1ccc(S(=O)(=O)Nc2ccc3c(c2)C(=O)N([C@@H](C)CO)C[C@@H](C)[C@H](CN(C)S(=O)(=O)c2c(C)noc2C)OCCCC[C@H](C)O3)cc1	-25.8	-14.3
C[C@@H]1CN([C@H](C)CO)C(=O)Cc2cc(NC(=O)NC3CCCCC3)ccc2O[C@H]1CN(C)S(=O)(=O)c1cccs1	6.5	2.0
CCCN1[C@H](C(=O)OC)[C@@H](CO)[C@@H]2Cn3c(ccc(-c4cccnc4)c3=O)[C@@H]21	7.4	6.8
C[C@@H]1CN([C@H](C)CO)C(=O)c2cc(NS(C)(=O)=O)ccc2O[C@@H](C)CCCCO[C@H]1CN(C)C(=O)Nc1ccc(F)cc1	18.6	11.4

Fetched by structure from above (four):
SMILES	Vaccinia inh	Vaccinia inh Venus
Cc1ccc(S(=O)(=O)Nc2ccc3c(c2)C(=O)N([C@H](C)CO)C[C@@H](C)[C@@H](CN(C)S(=O)(=O)c2cn(C)cn2)O3)cc1	2.7	9.7
CCCN1[C@H](C(=O)OC)[C@@H](CO)[C@@H]2Cn3c(ccc(-c4cccnc4)c3=O)[C@@H]21	7.4	6.8
CCCNC(=O)N(C)C[C@@H]1Oc2cc(C#CCN(C)C)ccc2S(=O)(=O)N([C@@H](C)CO)C[C@@H]1C	2.8	-4.8
C[C@H](O)C#Cc1cnc2c(c1)C(=O)N([C@@H](C)CO)C[C@H](C)[C@@H](CN(C)C(=O)CN(C)C)O2	16.1	7.5

(list continues)
SMILES	Vaccinia inh	Vaccinia inh Venus
C[C@H](CO)N1C[C@H](C)[C@H](CN(C)C)Oc2ncc(Br)cc2C1=O	36.1	13.6
O=C(C[C@H]1C[C@@H]2c3cc(NC(=O)C4CCOCC4)ccc3O[C@@H]2[C@@H](CO)O1)NCc1cc(F)ccc1F	3.8	0.6
O=C(C1CCCC1)N1CCCCN2[C@H](C1)[C@@H](c1ccc(-c3cccc(F)c3)cc1)[C@@H]2CO	?	/
C[C@@H]1CN([C@@H](C)CO)S(=O)(=O)c2ccc(-c3cccnc3)cc2O[C@H]1CN(C)C(=O)C1CCC1	11.6	2.3
Cc1cc(C(=O)Nc2cccc3c2O[C@H](CN(C)S(=O)(=O)c2cn(C)cn2)[C@@H](C)CN([C@H](C)CO)C3=O)n(C)n1	31.7	25.5
CNC[C@H]1Oc2cc(-c3ccccc3F)ccc2S(=O)(=O)N([C@H](C)CO)C[C@@H]1C	-24.1	-10.5
C[C@@H]1CN([C@@H](C)CO)C(=O)c2cc(C#CCN(C)C)cnc2O[C@@H]1CN(C)Cc1ccncc1	14.3	3.2
C[C@@H]1CN([C@H](C)CO)C(=O)c2cc(NC(=O)c3ccccc3)ccc2O[C@@H](C)CCCCO[C@H]1CN(C)S(=O)(=O)c1ccccc1	4.4	-5.6
CCS(=O)(=O)Nc1ccc2c(c1)C(=O)N(C)[C@H]1CC[C@@H](CC(=O)N3CCCCC3)O[C@H]1CO2	8.7	7.4
CC(C)NC(=O)Nc1ccc2c(c1)C(=O)N(C)[C@@H]1CC[C@H](CC(=O)NCc3ccc(F)cc3)O[C@H]1CO2	7.8	0.0
CO[C@H]1CN(C)C(=O)c2cc(NS(C)(=O)=O)ccc2OC[C@H](C)N(C(=O)C2CCCCC2)C[C@@H]1C	6.0	10.6
C[C@@H]1CCCCO[C@H](CN(C)C(=O)C2CCCCC2)[C@H](C)CN([C@@H](C)CO)C(=O)c2cc(NC(=O)Nc3ccc(F)cc3)ccc2O1	-20.9	-11.0
Cc1ccc(CN2CC(=O)N3[C@H](C2)[C@@H](c2ccc(-c4ccccc4F)cc2)[C@@H]3CO)cc1	9.5	4.0
C[C@@H]1CN([C@@H](C)CO)S(=O)(=O)c2ccc(C3=CCCC3)cc2O[C@H]1CN(C)C(=O)Cc1ccncc1	18.1	17.7
COc1cccc(CN2CCC3(CC2)CN(S(C)(=O)=O)[C@@H](CO)c2[nH]c4cc(OC)ccc4c23)c1	?	/
CCc1csc(N2[C@H](CO)[C@H](c3ccc(-c4ccc(F)cc4)cc3)[C@@H]2C#N)n1	-24.8	-16.8
CCCNC(=O)N1CCC2(CC1)CN(Cc1cccc(OC)c1)[C@H](CO)c1[nH]c3cc(OC)ccc3c12	29.3	16.0
COc1ccc(C#Cc2ccc3c(c2)O[C@@H](CN(C)C(=O)Nc2cccc(OC)c2)[C@@H](C)CN([C@H](C)CO)S3(=O)=O)cc1	-22.0	-18.9
C[C@@H]1CN([C@@H](C)CO)C(=O)c2cc(N(C)C)ccc2O[C@@H](C)CCCCO[C@@H]1CN(C)S(=O)(=O)c1cn(C)cn1	-3.1	10.5
C[C@@H]1CN([C@H](C)CO)C(=O)c2cc(-c3cccnc3)cnc2O[C@@H]1CN(C)Cc1ccc(Oc2ccccc2)cc1	?	/
O=C(NC[C@H]1CC[C@H]2[C@H](CN2Cc2cccc(Cl)c2)O1)C1CCOCC1	8.5	4.1
O=C(C1CCC1)N1CC(=O)N2[C@@H](CO)[C@@H](c3ccc(Br)cc3)[C@@H]2C1	12.5	14.9
C[C@@H]1CN([C@@H](C)CO)C(=O)c2cccc(NC(=O)Nc3cccc4ccccc34)c2O[C@H]1CN(C)S(=O)(=O)c1ccc(F)cc1	-2.0	3.6
CCCC#Cc1cnc2c(c1)C(=O)N([C@H](C)CO)C[C@@H](C)[C@@H](CN(C)C(=O)C1CCOCC1)O2	12.6	-4.8
C[C@H](CO)N1C[C@H](C)[C@H](CN(C)C(=O)NC2CCCCC2)Oc2ccc(NC(=O)CCCN(C)C)cc2CC1=O	7.8	7.4

Next part:
SMILES	Vaccinia inh	Vaccinia inh Venus
Cc1ccc(S(=O)(=O)N(C)C[C@@H]2Oc3c(NC(=O)Nc4cccc5ccccc45)cccc3C(=O)N([C@H](C)CO)C[C@H]2C)cc1	-11.8	-4.8
COc1ccc(NC(=O)N(C)C[C@H]2Oc3ccc(N(C)C)cc3C(=O)N([C@H](C)CO)C[C@@H]2C)cc1	13.7	14.0
COc1cccc(S(=O)(=O)N[C@H]2CC[C@H](CC(=O)NCc3ccc(Cl)cc3)O[C@@H]2CO)c1	-7.1	-4.0
C[C@H](CO)N1C[C@H](C)[C@@H](CN(C)Cc2ccc(-c3ccccc3)cc2)Oc2ccc(NC(=O)C3CCCCC3)cc2C1=O	10.1	3.5
C[C@@H]1CCCCO[C@@H](CN(C)C(=O)Nc2ccc(F)cc2)[C@@H](C)CN([C@H](C)CO)C(=O)c2cc(NC(=O)CCC(F)(F)F)ccc2O1	34.2	13.2
C/C=C/c1ccc2c(c1)O[C@@H](CN(C)C(=O)c1ccccc1F)[C@H](C)CN([C@@H](C)CO)S2(=O)=O	14.0	6.7
COc1ccccc1-c1ccc2c(c1)O[C@H](CN(C)C(=O)c1cccnc1)[C@@H](C)CN([C@@H](C)CO)S2(=O)=O	6.6	-9.3
C[C@@H]1CN([C@@H](C)CO)C(=O)c2cccc(NC(=O)Nc3ccc(F)cc3)c2O[C@@H]1CN(C)S(=O)(=O)c1ccc(Cl)cc1	?	/
O=C(C[C@@H]1C=C[C@H](NC(=O)Cc2ccccn2)[C@@H](CO)O1)NCCc1ccncc1	6.5	12.0
C[C@H](CO)N1C[C@H](C)[C@H](CN(C)S(=O)(=O)c2cccc(F)c2)Oc2ncc(C#CCN(C)C)cc2C1=O	1.0	12.5
C[C@@H]1CCCCO[C@H](CN(C)C(=O)Nc2ccc(F)cc2)[C@@H](C)CN([C@H](C)CO)C(=O)c2cc(NC(=O)NC3CCCCC3)ccc2O1	-11.0	-9.6
CCS(=O)(=O)Nc1ccc2c(c1)C(=O)N(C)C[C@@H](OC)[C@@H](C)CN(CC1CCCCC1)[C@@H](C)CO2	-2.0	-1.4
Cc1noc(C)c1S(=O)(=O)Nc1ccc2c(c1)C(=O)N([C@H](C)CO)C[C@H](C)[C@@H](CN(C)Cc1ccc(Cl)c(Cl)c1)O2	-6.5	8.5
CN1CCN(C(=O)[C@@H]2[C@@H](CO)[C@@H]3Cn4c(cccc4=O)[C@@H]3N2Cc2ccccc2F)CC1	30.9	12.8
COCC#Cc1cnc2c(c1)C(=O)N([C@H](C)CO)C[C@@H](C)[C@H](CN(C)C(=O)NC1CCCC1)O2	15.5	2.0
Cc1ccc(S(=O)(=O)N(C)C[C@@H]2Oc3c(NC(=O)c4ccc(-c5nccs5)cc4)cccc3C(=O)N([C@@H](C)CO)C[C@H]2C)cc1	7.9	8.3
CO[C@H]1CN(C)C(=O)c2ccc(NC(=O)C3CCC3)cc2OC[C@@H](C)N(C(=O)NC(C)C)C[C@@H]1C	-1.0	-7.0
O=C(CC1CC1)N1[C@H](CO)[C@H](c2ccccc2)C12CN(Cc1cc(F)ccc1F)C2	-14.7	-10.8
C[C@@H]1CN([C@H](C)CO)C(=O)c2cc(-c3ccc(C#N)cc3)cnc2O[C@@H]1CN(C)Cc1ccccn1	?	/
O=C(C[C@@H]1CC[C@@H]2[C@H](COC[C@H](O)CN2Cc2nccs2)O1)NCc1ccccc1Cl	-6.5	0.8
CCCNC(=O)[C@H]1[C@H](CO)[C@H]2Cn3c(ccc(-c4ccccc4F)c3=O)[C@H]2N1C(C)=O	3.4	-0.5
C[C@@H]1CN([C@H](C)CO)C(=O)c2cccc(NS(C)(=O)=O)c2O[C@@H]1CN(C)C(=O)Nc1ccc2c(c1)OCO2	12.3	6.6
O=C(C1CCOCC1)N1[C@@H](CO)[C@H](c2ccccc2)C12CN(CCC(F)(F)F)C2	9.3	12.3
COc1ccc(NC(=O)N(C)C[C@@H]2OCCCC[C@@H](C)Oc3ccc(NC(=O)Nc4ccccc4)cc3C(=O)N([C@H](C)CO)C[C@H]2C)cc1	-31.8	-24.7
COc1cccc(-c2cn(CC[C@@H]3CC[C@@H](NS(=O)(=O)c4ccccc4Cl)[C@H](CO)O3)nn2)c1	-4.5	-5.2
CO[C@@H]1CN(C)C(=O)c2ccc(NC(=O)C3CC3)cc2OC[C@H](C)N(C(C)=O)C[C@@H]1C	20.0	11.4
C/C=C/c1ccc2c(c1)O[C@H](CN(C)C(=O)CN(C)C)[C@@H](C)CN([C@@H](C)CO)S2(=O)=O	-5.8	-9.9

Full records, quoted from the list. Order of screens: Vaccinia inh | Vaccinia inh Venus
CO[C@@H]1CN(C)C(=O)c2ccc(NC(=O)C3CC3)cc2OC[C@H](C)N(C(C)=O)C[C@@H]1C is listed with 20.0 | 11.4
CN1CCN(C(=O)[C@@H]2[C@@H](CO)[C@@H]3Cn4c(cccc4=O)[C@@H]3N2Cc2ccccc2F)CC1 is listed with 30.9 | 12.8
